# GLA inh pH 4.5: inhibitors of human alpha-galactosidase A at pH 4.5. 230,000 tested, under 10 active. activity change, negative = inhibition, % at 105 µM. P06280. purified enzyme, 4-MU-alpha-Gal fluorescence, pH 4.5; inconclusive = small, poorly fitted or top-dose-only inhibition, or a rising curve; inactive = flat fitted curve, though single readings scatter; no compound was filed as active;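 also: 0% = full activity with enzyme and -100% = basal without enzyme; dose as in the result columns while the protocol names 77 µM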
# Rango release inh: inhibitors of RanGTP-induced Rango-importin beta complex dissociation. O95149+P62826. Biochemical FRET Rango-importin beta, RanGTP-induced dissociation. Potency, µM (highest dose often 46.1 µM), inactives show at the highest dose activity change, negative = inhibition. 340,000 tested, 0.071% active. AID 540253; active means falling FRET ratio curve, often poorly fitted, with flat reads before Ran was added; inconclusive means other falling curves, or compound fluorescence or quenching; inactive means flat or rising ratio curve;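 also: potency is read from the fitted curve at half-maximal effect; % of control where 0% means no effect; nearly all actives have a fitted effect of over 45% in size; -100% = wells without RanGTP and RCC1; the record marks most hits as doubtful in a second field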
#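 Rango (0.1 uM)–importin beta (0.25 uM) complex; RanGTP-RCC1 trigger; 45 min RT; CFP/YFP FRET read.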
# miR-21 reporter: miR-21 reporter, rising signal; 340,000 tested, under 10 active; HeLa miR-21 FLuc reporter, luciferase, 48 h; Potency, µM (titrated, usually from 38.3 µM), inactives show at the highest dose reporter change, positive = more light; AID 2288; active = well fitted rising curve with a large enough effect; inconclusive = small, poorly fitted or top-dose-only effect; inactive = no such curve, though single readings can be large or run the other way;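 also: % of control where 0% means no effect; miR-21 action dims this reporter so a rising signal means less miR-21 action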
#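 Compounds were titrated across several concentrations (up to approximately 40 uM) and incubated 48 hours with HeLa miR-21-FLuc reporter cells (miR-21 target sequence downstream of FLuc, endogenous miR-21). Readout was firefly luciferase luminescence after lytic detection reagent.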
# Rango complex inh: inhibitors of Rango-importin beta complex formation | Q14974 | 340,000 tested, 0.031% active | Rango CFP/YFP FRET sensor + importin beta, 45 min | Potency, µM (series often up to 92.2 µM), inactives show at the highest dose inhibition of complex formation; active = rising FRET ratio curve, often small or poorly fitted; inconclusive = mostly compound fluorescence or quenching in the first reads; inactive = flat curves in all reads;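 also: potency is read from the fitted curve at half-maximal effect; 0% = DMSO wells and 100% = buffer wells lacking importin beta; nearly all actives have a fitted effect of over 15% in size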
# Target sequence (Q14974 whole entry, looked up): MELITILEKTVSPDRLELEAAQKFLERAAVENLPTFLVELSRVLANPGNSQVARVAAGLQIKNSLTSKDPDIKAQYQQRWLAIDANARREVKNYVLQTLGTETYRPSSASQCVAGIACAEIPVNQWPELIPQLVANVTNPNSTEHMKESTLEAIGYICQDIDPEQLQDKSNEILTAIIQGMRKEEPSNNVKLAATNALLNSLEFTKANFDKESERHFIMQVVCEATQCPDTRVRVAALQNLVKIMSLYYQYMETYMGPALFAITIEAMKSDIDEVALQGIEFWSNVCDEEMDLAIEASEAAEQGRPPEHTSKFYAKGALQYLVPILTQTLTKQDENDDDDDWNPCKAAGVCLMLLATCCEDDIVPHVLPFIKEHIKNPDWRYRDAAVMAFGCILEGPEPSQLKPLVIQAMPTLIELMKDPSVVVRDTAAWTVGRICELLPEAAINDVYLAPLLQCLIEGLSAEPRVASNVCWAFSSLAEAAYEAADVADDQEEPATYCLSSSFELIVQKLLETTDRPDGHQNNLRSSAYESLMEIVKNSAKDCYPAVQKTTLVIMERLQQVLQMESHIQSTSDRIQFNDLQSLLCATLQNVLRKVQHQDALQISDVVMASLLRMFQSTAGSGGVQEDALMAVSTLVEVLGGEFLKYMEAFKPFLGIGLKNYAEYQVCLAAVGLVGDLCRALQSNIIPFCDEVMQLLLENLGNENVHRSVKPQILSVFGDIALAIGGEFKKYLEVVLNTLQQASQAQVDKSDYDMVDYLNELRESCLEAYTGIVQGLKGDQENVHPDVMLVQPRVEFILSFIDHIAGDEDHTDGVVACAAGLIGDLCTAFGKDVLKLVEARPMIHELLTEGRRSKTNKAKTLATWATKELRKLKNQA
#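 Inhibition scored from the CFP 486 nm/YFP 530 nm FRET ratio 45 min after adding 0.125 microM importin beta to 50 nM Rango biosensor preincubated 5 min with compound (room temperature, PBS with DTT, Tween-20, BSA). No-importin wells as positive control.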
# * = called active by the depositor; ? = inconclusive; / = no result given; & = joins results of further samples. These rows are one share of the data, so the mix of outcomes need not match the whole.
SMILES,GLA inh pH 4.5,Rango release inh,miR-21 reporter,Rango complex inh
COc1ccccc1NC(=O)c1cc(S(=O)(=O)NC2CCCC2)ccc1F,/,15%,2%,0.6%
O=c1cc(CCl)[nH]c2nc3ccccc3n12,8,-13%,-9%,1.0%
O=c1/c(=C/c2cccc3ccccc23)sc2ncnn12,0,3%,-2%,1.9%
Fc1ccc(CSc2ncnc3ccccc23)cc1,-3,3%,-16%,-1.6%
CCN1CCN(c2nnc(-c3ccc(C)cc3)c3ccccc23)CC1,/,0%,-2%,3.5%
COc1cccc(CNC(=O)CCNS(=O)(=O)c2cccs2)c1,4,2%,2%,4.4%
CCOC(=O)C1=C(C)N=C2SC(C)C(=O)N2C1c1ccc(OC(C)=O)c(OC)c1 (configuration not stated),-18,21%,-9%,3.6%
CCCN1CCC(=O)N(CCSc2ccc(C)cc2)CC1,-13,11%,-57%,-2.5%
COc1ccc(NC(=O)CN(C)C(=O)CCc2c[nH]c3ccccc23)cc1,/,-4%,16%,-1.1%
COc1ccc(CNc2ccc(-c3ccc(OC)cc3)nn2)cc1,7,9%,-37%,-5.2%
CCCC(C)NC(=O)Cc1ccccc1 (configuration not stated),-6,-2%,0%,-3.4%
COc1cc(CN2CCN(CCc3ccccc3)C(CCO)C2)cc(OC)c1 (configuration not stated),-19,1%,-2%,-0.3%

# Two of these compounds in a different format.
Compound: CCN1CCN(c2nnc(-c3ccc(C)cc3)c3ccccc23)CC1
  GLA inh pH 4.5 = /
  Rango release inh = 0%
  miR-21 reporter = -2%
  Rango complex inh = 3.5%
Compound: O=c1/c(=C/c2cccc3ccccc23)sc2ncnn12
  GLA inh pH 4.5 = 0
  Rango release inh = 3%
  miR-21 reporter = -2%
  Rango complex inh = 1.9%

# In the list so far, these contain a halogen.
SMILES,GLA inh pH 4.5,Rango release inh,miR-21 reporter,Rango complex inh
COc1ccccc1NC(=O)c1cc(S(=O)(=O)NC2CCCC2)ccc1F,/,15%,2%,0.6%
O=c1cc(CCl)[nH]c2nc3ccccc3n12,8,-13%,-9%,1.0%
Fc1ccc(CSc2ncnc3ccccc23)cc1,-3,3%,-16%,-1.6%

# Next section:
SMILES,GLA inh pH 4.5,Rango release inh,miR-21 reporter,Rango complex inh
CCCCn1c(N)c(N(CCOC)C(=O)CSc2nnc(-c3ccc(F)cc3)n2N)c(=O)[nH]c1=O,/,-5%,/,2.6%
CCOc1ccc(CC(=O)NNC(=S)NC)cc1Br,7,-18%,-19%,-3.0%
COc1ccccc1Oc1nc(C)c(C(C)=O)cc1C#N,-3,-1%,1%,1.9%
CCCN1C(=O)S/C(=C\c2ccc(N3CCOCC3)cc2C)C1=O,-4,/,-35%,/
Cc1cccc(OCC(=O)Nc2ccc(NC(=O)c3ccco3)c(C)c2)c1,/,1%,-4%,2.3%
COc1ccc(CCCNC(=O)C2CCC(=O)N(Cc3ccc(Cl)cc3)C2)cc1 (configuration not stated),/,17%,11%,1.8%
O=C(Cc1ccc(Cl)cc1)NNC1CC(=O)N(c2ccc3ccccc3c2)C1=O (configuration not stated),4,2%,-2%,-5.5%
CC(C)(C)OC(=O)N/N=C\c1ccc[nH]1,-12,0%,-18%,1.9%
CN(C)S(=O)(=O)Oc1cccc(C(=O)Nc2ccc(Cl)c(Cl)c2)c1,-11,-6%,16%,1.1%
CN(C)c1ccc(/C=N/n2c(COc3ccccc3)n[nH]c2=S)cc1,-14,1%,-9%,3.7%
Cc1nn(-c2ccccc2)c(N)c1N=O,1,-13%,-1%,-2.2%
CCCCOc1ccc(-c2c(C#N)c(N)[nH]c(=S)c2C#N)cc1,3,-1%,-8%,-2.5%
COc1ccc2c3n(nc2c1)CCN=C3c1ccc(Cl)cc1,/,-20%,/,2.7%
O=C(O)CSc1nc2ccccc2n1Cc1ccccc1,/,2%,-2%,3.3%
CC(=O)Nc1ccc(S(=O)(=O)Nc2nc3ccccc3nc2N2CCOCC2)cc1,/,42%,/,2.0%
COC(=O)c1cc(S(=O)(=O)Nc2c(C)cccc2C)cn1C,/,18%,1%,0.1%
COc1ccccc1NC(=O)C(C)NS(=O)(=O)c1ccccc1 (configuration not stated),-7,2%,-3%,2.6%
CSc1nc2c(c(=O)[nH]1)C(c1cccc(Br)c1)CC(=O)N2 (configuration not stated),-1,1%,0%,-0.8%
CCc1cccc(NC(=O)Nc2cccs2)c1,-15,-19%,-27%,?
O=C(c1cccnc1)N1CCC(c2nc3ccccc3[nH]2)CC1,0,/,0%,/
COC(C[C@H](O)C[C@H](O)COCc1ccccc1)OC,-1,19%,6%,0.3%
Cn1c(=O)n(C)c2cc(S(=O)(=O)Nc3ccccc3O)ccc21,0,-6%,-1%,0.2%
CC(=O)N1c2ccc(S(=O)(=O)NCCC(=O)Nc3ccc(C)c(F)c3)cc2CC1C (configuration not stated),/,13%,2%,1.7%
C=CCNC(=O)C1CC(c2cccc(OC)c2)=NO1 (configuration not stated),-2,-15%,-15%,-2.3%
COc1ccc(N2CSC3=C(C#N)C(c4ccc(OC)c(OC)c4)CC(=O)N3C2)c(OC)c1 (configuration not stated),4,?,-2%,?
COc1cc(NC(=O)CSc2c3c(nc4ccccc24)CCC3)cc(OC)c1OC,3,14%,0%&1%,2.5%
COc1ccc2c(c1)N(C(=O)CSc1n[nH]c(C)n1)C(C)(C)C=C2C,-3,0%,-5%,-0.3%
CCC(C)(NC(=O)c1cccc(N2C(=O)CSC2c2ccccc2)c1)C(=O)Nc1ccccc1C (configuration not stated),3,22%,-1%,3.0%
COc1ccc(/C=C(\C#N)C(=O)NCc2ccccc2)cc1O,/,-11%,-7%,-2.0%
CC(Oc1ccc(Br)cc1)C(=O)O/N=C(\N)c1ccncc1 (configuration not stated),/,1%,0%,-0.3%
COc1cc(C(=O)NCc2cccs2)ccc1OCc1c(C)noc1C,/,-9%,/,0.6%
CC(=O)c1cccc(OCC(=O)N(Cc2ccco2)c2c(N)n(Cc3ccccc3)c(=O)[nH]c2=O)c1,/,-25%,/,1.0%
Cc1ccc(-c2n[nH]c(=O)c3ccccc23)cc1S(=O)(=O)N(C)CCO,0,-2%,-6%,-3.3%
CCOc1cc(/C=N/NC(=O)Cn2nc([N+](=O)[O-])cc2C)ccc1OCc1ccc(F)cc1,12,-1%,-2%,0.2%
COc1ccc(NC(=O)C/C(C)=N/NC(=O)CCc2ccccc2)c(OC)c1,/,3%,2%,2.9%
COc1cc(OC)cc(C(=O)N2CCC(N3CCN(c4ccccc4OC)CC3)CC2)c1,9,-14%,-3%,5.7%

# Complete entries as entered above.
# COc1ccc(CNc2ccc(-c3ccc(OC)cc3)nn2)cc1 as listed: GLA inh pH 4.5: 7; Rango release inh: 9%; miR-21 reporter: -37%; Rango complex inh: -5.2%
# Fc1ccc(CSc2ncnc3ccccc23)cc1 as listed: GLA inh pH 4.5: -3; Rango release inh: 3%; miR-21 reporter: -16%; Rango complex inh: -1.6%

# Following part
SMILES,GLA inh pH 4.5,Rango release inh,miR-21 reporter,Rango complex inh
CC(C)(C)NC(=O)COC(=O)/C=C/c1ccc(F)cc1,4,23%,-6%,-2.5%
COc1cccc(NC(=O)CSc2nc3n[nH]c(C)c3c(=N)n2-c2cccc(OC)c2)c1,9,-5%,14%,-0.5%
COc1ccc(N2CCN(C(=S)NC(C)c3ccccc3)CC2)cc1 (configuration not stated),11,1%,2%,1.1%
O=C(COC(=O)COc1ccc(Cl)cc1)NCCNC(=O)COC(=O)COc1ccc(Cl)cc1,/,16%,/,0.2%
CC(=O)/C=C/c1ccccc1O,-5,1%,24%,11%
CC(C)(C)c1cc(Br)c(O)c(N=Nc2ccc(S(=O)(=O)N3CCOCC3)cc2)c1,-10,8%,-3%,-1.4%
CCn1c(SCC(=O)Nc2cc(F)ccc2C)nnc1-c1ccccc1O,-4,23%,22%,0.3%
CCn1c(-c2ccncc2)n[nH]c1=S,0,-6%,0%,0.9%
CCC(=O)N1CCc2cc(Br)c(S(=O)(=O)NCCN3CCCCC3CC)cc21 (configuration not stated),/,-5%,/,-0.1%
O=C(C1CC(=O)N(c2ccc(Br)cc2)C1)N1CCCC1 (configuration not stated),/,8%,-1%,4.2%
Cc1ccc(CCC(=O)Nc2ccc([N+](=O)[O-])cc2)o1,/,3%,0%,-0.8%
CC(C)OCCCNC(=O)c1ccc(CN2CCc3ccccc3C2)cc1,/,11%,9%,-1.8%

# A different layout for 3 compounds above.
GLA inh pH 4.5 | Rango release inh | miR-21 reporter | Rango complex inh | smiles
-5 | 1% | 24% | 11% | CC(=O)/C=C/c1ccccc1O
-10 | 8% | -3% | -1.4% | CC(C)(C)c1cc(Br)c(O)c(N=Nc2ccc(S(=O)(=O)N3CCOCC3)cc2)c1
-4 | 23% | 22% | 0.3% | CCn1c(SCC(=O)Nc2cc(F)ccc2C)nnc1-c1ccccc1O

# (cont.)
SMILES,GLA inh pH 4.5,Rango release inh,miR-21 reporter,Rango complex inh
CC1CCc2c(C(=O)NCc3ccco3)csc2C1 (configuration not stated),6,-8%,-50%,6.1%
C[C@H](CO)NC(=O)[C@@H]1C[C@H]1[C@@H](NP(=O)(c1ccccc1)c1ccccc1)c1ccccc1,2&-1,0%,-10%,0.8%
NC(=O)c1ccc2c(=O)c(O)c(-c3cc(Cl)c(N)c(Cl)c3)[nH]c2c1,/,-10%,0%,1.1%
O=C(c1cn(-c2ccccc2)nc1-c1ccccc1)N1CCOCC1,0,2%,-18%,0.4%
CCc1cccc(NC(=O)CSc2nc3c(c(=O)[nH]2)CCCC3)c1,-3,/,-6%,/
Cc1noc(C)c1S(=O)(=O)N1CCCC(C(=O)NCCC2=CCCCC2)C1 (configuration not stated),0,9%,-1%,3.7%
COc1ccc(-c2nnc(Sc3nc4ccccc4o3)c3ccccc23)cc1,/,0%,-11%,-2.0%
Cc1cc(C)cc(-n2c(SCC(=O)NCc3ccco3)nc3ccccc3c2=O)c1,8,-1%,0%,3.7%
CCNC(=O)N(CC)C[C@H]1N[C@@](C)(C(=O)OC)[C@H]2C(=O)N(C)C(=O)[C@@H]12,/,0%,/,0.6%
O=C(COC(=O)CCC1CCCC1)Nc1ccccc1OC(F)F,-14,5%,-1%,0.9%
CN(C)S(=O)(=O)c1ccc2c(c1)C(CC(=O)O)NC2=O (configuration not stated),3,0%,-1%,-0.1%
NC(=O)c1ccc(N2CCN(c3ncc(C(F)(F)F)cc3Cl)CC2)cc1,3,1%,-14%,3.2%
COc1ccc(NC(=O)c2ccc3c(=O)n(-c4ccc(OC)cc4OC)c(=S)[nH]c3c2)cc1,-2,-2%,13%,-0.5%
COC(=O)c1cc(C(=O)N2CCN(c3cccc(Cl)c3)CC2)cc([N+](=O)[O-])c1,-10,1%,24%,-2.2%
COC(=O)Cc1[nH]c(=S)[nH]c1C(=O)OC,6,-17%,1%,3.5%
CC(=O)/C(C[N+]1(C)CCCCC1)=N\O,4,0%,-8%,?
N#C/C(=C/c1ccc(Br)s1)C(=O)NCCc1c[nH]c2ccccc12,-14,4%,5%,-1.9%
O=C(Nc1ccccc1)N(C1=NCCCCS1)c1ccccc1,-2,0%,-29%,2.9%
CN(C(=O)c1cccc(NC(=O)Cc2cccc([N+](=O)[O-])c2)c1)C1CCC1,/,-10%,/,0.4%
COCCN1Cc2cccc(C(=O)Nc3c(C)cc(C)cc3C)c2C1=O,-2,7%,-6%,-1.4%
C=C[C@H]1[C@H](O[C@@H]2O[C@H](CO)[C@@H](O)[C@H](O)[C@H]2O)OC=C2C(=O)OCC[C@]21O,/,3%,/,-1.1%
CCOC(=O)c1ccc(NC(=S)NCCc2ccccc2F)cc1,1,2%,-7%,0.5%
O=C(COC(=O)/C=C/c1ccc(OC(F)F)cc1)Nc1ccc(N2CCOCC2)cc1,/,-1%,/,0.2%
C=CCN1C=C2C(=O)C(C)(OC(=O)C3CCCC3)C(=O)C=C2C=C1c1ccsc1 (configuration not stated),-7&-7,13%,0%,?
Nc1nnc(SCC(=O)OCC(=O)Nc2ccccc2)s1,-1,-16%,0%,2.5%
COc1ccc2sc(C)nc2c1NC(C)=O,14,22%,-5%,1.6%
Fc1cccc(F)c1-n1c(CN2CCCCC2)csc1=S,2,12%,23%,-1.8%
Cn1ccsc1=NC(=O)c1cc(S(=O)(=O)N2CCOCC2)ccc1F,/,-18%,/,0.6%

# Assay outcomes deposited in PubChem by National Center for Advancing Translational Sciences (NCATS).
